# CDC25B CDK2 inh: primary biochemical HTRF screen for blockers of M-phase inducer phosphatase 2 binding to CDK2/cyclin A. HTRF CDC25B-CDK2/CyclinA binding, anti-His/anti-Flag; active compounds read high. 94,000 compounds, 0.72% hits. AID 1259370, 2018. P30305+P24941. z-score (concentration not given with the values);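 further: score is relative to mean and SD of negative controls; strong numbers were not always called active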
# HIV TAR-Tat: TAR RNA-Tat peptide displacers, HIV-1, primary screen, biochemical, FRET, FAM/TAMRA-labeled Tat; HIV-1 TAR RNA, Tat peptide displacement FRET; active compounds read high; 100,000 compounds, 0.6% hits; z-score (concentration not given with the values);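 further: score is relative to mean and SD of negative controls; some compounds called inactive have numbers as strong as hits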
# Numbers without * were called inactive; · = not tested or not shown.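 How the source made its calls: active means z-score from 3 up in half or more of its runs; inactive means the rest.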 Rows are unselected; any-hit rate near 0.97%.
SMILES,CDC25B CDK2 inh,HIV TAR-Tat
CN1CCN(CCCNC(=O)CCC(=O)N2CCCn3nc(-c4cn(C)c5ccccc45)cc32)CC1,·,2.8
COc1ccc(/C(C)=N/OCc2cccc(C(=O)O)c2)cc1OC,-0.21,·
Cc1oc2ncnc(N3CCCCC3)c2c1C(=O)N(C)Cc1ccco1,·,0.41
c1cc2nncn2nc1N1CCOCC1,-0.03,1.7
Cc1nc(-c2ccc(S(=O)(=O)NC3CCCCC3)cc2)co1,·,0.58
COc1ccccc1-c1noc(CSc2nnc(C)n2-c2cccc(C)c2)n1,-1.1,1.5
O=C(NCCCN1CCCCC1)c1cn2c3c(ccc(Cl)c3c1=O)OCC2,·,1.1
CSCCC(NS(=O)(=O)c1cccs1)C(=O)NCc1cccs1 (stereo not drawn),-1,·
Cc1nc(Nc2ncc3c(n2)CC(C)CC3=O)nc2ccccc12 (stereo not drawn),0.01,-1.9
COc1cccc(OCCCSc2nc(-c3ccccc3F)nc3cc(=O)[nH]n23)c1,·,1.2
Cc1ccc(-c2nnc(NCc3ccccc3)c3ccccc23)cc1S(N)(=O)=O,-5.3,0.31
CCCc1nc(SCC(=O)N2CCC(C)CC2)c2c(=O)n(C)c(=O)n(C)c2n1,·,0.5
COC(=O)C1CC(=O)N(c2cccc(O)c2)C1 (stereo not drawn),-0.14,0.8
Cc1cccc(C(=O)NC(=S)Nc2ccc(O)c(-c3nc4ccccc4s3)c2)c1,-3.6,·
Cc1c(C(=O)N(Cc2ccc(C(C)C)cc2)C2CCS(=O)(=O)C2)oc2ccccc12 (stereo not drawn),1.5,-0.5
C=CCN1C(=O)C(O)(CC(=O)c2ccc(C(C)(C)C)cc2)c2cc(Br)ccc21 (stereo not drawn),-0.58,·
CCN1CCN(CC(=O)c2ccc3cc[nH]c3c2)CC1,2.1,1.3
CC1Cn2cc(C(=O)N3CCN(c4ccc(F)cc4)CC3)c(=O)c3c(Cl)ccc(c32)O1 (stereo not drawn),·,-0.17
CCOC(=O)C1CCCN(c2cc(C(=O)O)c3cc(N)ccc3n2)C1 (stereo not drawn),·,0.05
CC(C)CN(CC(C)C)c1nnc(NC(=O)Nc2ccccc2)s1,-1.4,1.2
COc1cc2[nH]c(=O)n(CCCC(=O)NC3CC3)c(=O)c2cc1OC,0.35,·
Cc1nn(-c2ccccc2)c2c1-c1onc(C(=O)NC3CCCCC3)c1CC2,-1.4,1.3
O=C(CCc1nc2cccnc2n1-c1ccccc1)NCC1CCCO1 (stereo not drawn),-1.8,1.3
O=C(O)CSc1nc2ccccc2[nH]1,-2.8,0.44
Cc1cc(NC(=O)CS(=O)(=O)c2ccc(Cl)cc2)no1,·,1.1
Cc1ccc(C)c(S(=O)(=O)NCCc2csc3nc(-c4ccccc4F)nn23)c1,·,0.51
Cc1nnc2n1N=C(c1ccc3c(c1)OCCO3)CS2,·,0.35
C=CCN(C(=O)CSc1nc2ccccc2c(=O)[nH]1)c1ccccc1,·,0.99
COc1ccc(-n2nc(C(=O)Nc3ccc(OC)cc3OC)c3c4ccccc4n(C)c3c2=O)cc1,-1.2,0.34
Cc1nc(-c2ccc(C)c(S(=O)(=O)N3CC=C(c4ccccc4)CC3)c2)cs1,·,1.6
CCOC(=O)c1c(N)n(CCC2=CCCCC2)c2nc3ccccc3nc12,-7.9,·
COc1ccc(OC)c(NC(=O)NC(C)c2c(-n3cccc3)sc3c2CCCC3)c1 (stereo not drawn),-5.1,-0.12
Cn1c2ccccc2c2cnn(CC(=O)N3CCCCCC3)c(=O)c21,-0.01,·
CCCC(NC1CCS(=O)(=O)C1)C(=O)O (stereo not drawn),-1.3,1.8
Cc1cc(C)c2c(=O)c3ccccc3[nH]c2n1,-1.7,·
CCN1CCN(c2cc3c(cc2F)c(=O)c(S(=O)(=O)c2ccc(C)cc2C)cn3CC)CC1,·,0.08
CCn1nnc2cc(-c3noc(C(NC(=O)c4ccco4)C(C)C)n3)ccc21 (stereo not drawn),·,1.3
CSc1cccc(NC(=O)CN2c3ccc(Br)cc3-c3ccccc3S2(=O)=O)c1,-1.9,1.4
Cc1ccc(C)n1-c1nnc(N2CCC(C(=O)N3CCN(C)CC3)CC2)s1,0.99,0.32
O=C(Nc1ccc2c(c1)OCCO2)C1CCN(S(=O)(=O)c2cccc3nonc23)CC1,-0.58,0.05
CC1CCN(C(=O)C2CCCN(S(=O)(=O)c3ccc4c(ccn4C)c3)C2)CC1 (stereo not drawn),·,0.78
Cc1nn(CC(=O)NC2CCCC2)c(=O)c2cc3sccc3n12,-1.5,·
CCc1nnc(SCC(=O)Nc2cc(OC)cc(OC)c2)c2cc3sc(C)cc3n12,·,1.9
CCOC(=O)c1c(NC(N)=O)sc2c1CCCCC2,-2.1,-1
CCc1ccc(OCCSc2nc(C)nc3c2CCC3)cc1,-1.3,1.1
CCCCOC(=O)C(C)Oc1ccc2c(=O)c(Oc3ccccc3Br)coc2c1 (stereo not drawn),0.72,0.25
CSc1cccc(NC2=C(C(=O)N3CCOCC3)S(=O)(=O)c3ccccc32)c1,·,0.63
Cc1nn2cnnc2c(C)c1CCC(=O)NCCN1CCCC1,·,0.69
O=C(c1cc2n(n1)C(C(F)(F)F)CC(c1ccc(Cl)cc1)N2)N1CCCCC1 (stereo not drawn),-0.64,2.1
Cc1ccc2nc(Nc3ccc(F)c(Cl)c3)c3nnnn3c2c1,·,0.6
C=CCNC(=O)COCc1cc(-c2ccco2)on1,·,0.39
O=[N+]([O-])c1ccc(-c2csc(-c3ccncc3)n2)cc1,0.83,·
CCN1C(=O)C2(c3ccccc31)c1c(oc3cc(C)c(C)cc3c1=O)C(=O)N2CCOC (stereo not drawn),-2.2,0.82
COc1ccc(S(=O)(=O)[C@H]2CS(=O)(=O)C[C@@H]2N2CCCC2)cc1,-0.79,-0.12
O=C(CCCN1C(=O)CSc2ncccc21)NCCC1=CCCCC1,-0.99,-1.8
Cc1c(C)n(Cc2ccco2)c2ncn3nc(-c4ccc(C(C)(C)C)cc4)nc3c12,-2.1,0.8
CC[N+](CC)(CC)CCOc1ccc(/C=C/c2ccccc2)cc1,-0.67,·
CCCN1CCN(c2cnnc3c(Cl)cccc23)CC1,·,0.29
CCOC(=O)c1c(O)c2scc(C)c2[nH]c1=O,0.63,·
Nc1nc(-c2ccccc2)c(CC(=O)O)s1,-2.2,1.2

# (list continues)
SMILES,CDC25B CDK2 inh,HIV TAR-Tat
O=C(Nc1nc2c(s1)CN(S(=O)(=O)c1ccccc1)CC2)c1cccs1,·,0.37
CCOc1ccc(N(C)S(=O)(=O)c2ccc3c(c2)NC(=O)CC(C)S3)cc1 (stereo not drawn),·,0.63
Brc1ccc2[nH]c3c(c2c1)CCC3,-3.9,·
CCS(=O)(=O)c1c(Nc2ccccc2C)sc(C(=O)c2ccccc2)c1N,-1.9,2
CCc1ccc(-c2nc(NC(=O)c3cc4c([nH]c3=O)CC(C)(C)CC4=O)sc2C)cc1,-0.93,-0.1
C=CCn1c(=O)sc2cc(NC(=O)C3CC3)ccc21,·,0.34
CC(C)OC(=O)Cn1nnc2sc3c(c2c1=O)CCCC3,0.07,0.09
O=C(c1ccc(CS(=O)c2ccccc2)o1)N1CCN(c2ccccc2)CC1 (stereo not drawn),1.2,0.36
Cc1ccc(-n2nnc(-c3nc(-c4ccc(F)cc4)no3)c2N)c(C)c1,·,1.4
CCC(C)(O)c1nnn(-c2nonc2N)c1C(C)(O)CC (stereo not drawn),-0.57,·
O=C(c1ccccc1F)N(Cc1ccco1)C1CCS(=O)(=O)C1 (stereo not drawn),-1.4,1.7
Cc1ccc2nc(NC(=O)CSc3[nH]c(=O)ncc3C)sc2c1,·,1.8
COc1ccc(OC)c(Nc2nc3nonc3nc2N2CCC(C)CC2)c1,-0.83,-2.4
CN1C(C(=O)NCc2ccco2)=CC(c2ccc3c(c2)OCO3)=NS1(=O)=O,-1.4,1.2
CCOc1ccc(-n2ccc(=O)c(C(=O)Nc3cc(OC)ccc3OC)n2)cc1,0.35,2.2
Cc1cc(-c2ccc(C(C)C)c(S(=O)(=O)NC3CCCC3)c2)on1,·,-0.89
CCOC(=O)c1c(C#N)c(N)n(-c2ccc(C)cc2)c1C,-0.94,-0.6
CCOc1ccc(Nc2nc(C)c3ncn(-c4ccc(OCC)cc4)c3n2)cc1,0.06,-0.19
CC(=O)C1=NN(c2ccccc2)/C(=C2\C(=O)N(c3ccccc3)N=C2C)S1,-1.4,·
Cc1noc(-c2cccs2)c1C(=O)NN,-1.7,·
O=C(Nc1ccc(OC(F)F)cc1)Nc1coc(-c2ccccc2)c1,-1.7,·
Cn1c(=O)oc2cc(S(=O)(=O)N3CCN(c4cccc(C(F)(F)F)c4)CC3)ccc21,-2.3,·
Cc1nc2sc(C(c3ccc(Br)cc3)N3CCN(Cc4ccccc4)CC3)c(O)n2n1 (stereo not drawn),1.4,·
C#CCN1C(=O)C(O)(CC(=O)c2ccccc2OC)c2ccccc21 (stereo not drawn),2.8,0.28
COC(=O)C1C(=O)NC(SC)=C(C#N)C1c1ccccc1Cl (stereo not drawn),-2.8,1.7
Cc1csc2ncnc(Sc3ccccc3N)c12,-1.2,·
CSc1nc2ccccc2n1CCOc1ccc(Cl)cc1,-1.8,0.92
CC1CCC(NC(=O)C2CCN(c3ccc4cc(S(=O)(=O)N5CCCCC5)ccc4n3)CC2)CC1 (stereo not drawn),·,0.8
O=C(CSc1n[nH]c(=O)n1-c1ccc2c(c1)OCCO2)c1csc2ccccc12,-3.6,·
C[C@@H]1OC(O[C@H]2C(O[C@H]3CC[C@@]4(C)C(CC[C@]5(C)C4CC=C4C6CC(C)(C)CC[C@]6(C(=O)O)CC[C@]45C)[C@]3(C)CO)OC[C@H](O)[C@@H]2O)[C@H](O)[C@H](O)[C@H]1O (stereo partly drawn),·,1.1
COCc1nn2cc(-c3ccc(C)cc3C)nc2s1,-1.1,1.3
O=S(=O)(NCc1cccnc1)c1ccc2[nH]c3c(c2c1)CCCC3,·,-1.4
Cc1ccc2ncc(C(=O)Nc3ccc(Br)c(C)c3)c(=O)n2c1,-1.8,-0.54
COc1cccc(CN2CCN(Cc3cccc4ccccc34)CC2)c1OC,-0.49,1.4
O=C(c1cnn2c(C(F)(F)F)cc(-c3cccs3)nc12)N1CCCC1,·,0.66
Cc1ccc(C)c(Nc2c(-c3ccc(Cl)cc3)c(=O)c2=O)c1,·,0.23
Cc1occc1-c1nnc(SCCC(=O)O)o1,1.5,0.7
CCc1nnc2c(Nc3ccc(F)cc3F)nc3ccccc3n12,-0.81,1.8
COc1ccc(-c2nc(Cn3c(SCc4cccc(OC)c4)nc4ccncc43)c(C)o2)cc1,-0.22,-0.54
O=C1CC(c2cccc(Br)c2)Nc2ccc3ccccc3c21 (stereo not drawn),-2.3,-1.1

# Given with values under each structure: entries from further up.
# Order of results: CDC25B CDK2 inh | HIV TAR-Tat
- CSc1nc2ccccc2n1CCOc1ccc(Cl)cc1
    -1.8 | 0.92
- CC1CCC(NC(=O)C2CCN(c3ccc4cc(S(=O)(=O)N5CCCCC5)ccc4n3)CC2)CC1 (stereo not drawn)
    · | 0.8
- O=C(CSc1n[nH]c(=O)n1-c1ccc2c(c1)OCCO2)c1csc2ccccc12
    -3.6 | ·
- C[C@@H]1OC(O[C@H]2C(O[C@H]3CC[C@@]4(C)C(CC[C@]5(C)C4CC=C4C6CC(C)(C)CC[C@]6(C(=O)O)CC[C@]45C)[C@]3(C)CO)OC[C@H](O)[C@@H]2O)[C@H](O)[C@H](O)[C@H]1O (stereo partly drawn)
    · | 1.1
- COCc1nn2cc(-c3ccc(C)cc3C)nc2s1
    -1.1 | 1.3
- O=S(=O)(NCc1cccnc1)c1ccc2[nH]c3c(c2c1)CCCC3
    · | -1.4
- Cc1ccc2ncc(C(=O)Nc3ccc(Br)c(C)c3)c(=O)n2c1
    -1.8 | -0.54
- COc1cccc(CN2CCN(Cc3cccc4ccccc34)CC2)c1OC
    -0.49 | 1.4
- O=C(c1cnn2c(C(F)(F)F)cc(-c3cccs3)nc12)N1CCCC1
    · | 0.66
- Cc1ccc(C)c(Nc2c(-c3ccc(Cl)cc3)c(=O)c2=O)c1
    · | 0.23
- Cc1occc1-c1nnc(SCCC(=O)O)o1
    1.5 | 0.7
- CCc1nnc2c(Nc3ccc(F)cc3F)nc3ccccc3n12
    -0.81 | 1.8
- COc1ccc(-c2nc(Cn3c(SCc4cccc(OC)c4)nc4ccncc43)c(C)o2)cc1
    -0.22 | -0.54
- O=C1CC(c2cccc(Br)c2)Nc2ccc3ccccc3c21 (stereo not drawn)
    -2.3 | -1.1

# Further entries follow:
SMILES,CDC25B CDK2 inh,HIV TAR-Tat
CC1CCc2nn(CC(=O)N3CCCCCC3)cc2C1 (stereo not drawn),-0.98,·
Cc1cc2nc(CSc3ccccc3)cc(=O)n2o1,-1.5,1.3
CCOC(=O)N1CCC2(CC1)OC(=O)C(C)=C2C(=O)N1CCCC1,·,1.8
CN(C)c1nc(Nc2ccc(Cl)cc2)c2cnn(C)c2n1,·,0.28
O=C1COc2cc(S(=O)(=O)NCCc3ccc(Cl)cc3)c(Cl)cc2N1,·,1.8
COC(=O)c1ccc(S(=O)(=O)N2CCC(C(N)=O)CC2)n1C,-0.56,·
CS(=O)(=O)c1nc(S(=O)(=O)c2ccc(Cl)cc2)c(NCc2ccccn2)s1,-0.08,-0.28
O=C(O)CCCCCN1CCN(c2ccccc2)CC1,0.09,·
CCN(c1ccccc1)S(=O)(=O)c1cc(Br)cc2c1N(C(C)=O)C(C)C2 (stereo not drawn),-1.2,·
O=C(NCc1ccccc1)NC1CCS(=O)(=O)C1 (stereo not drawn),0.08,0.5
Cc1ccc(S(=O)(=O)Nc2ccc3c(c2)N(S(C)(=O)=O)CCC3)c(C)c1,·,-0.48
CC1Cc2ccccc2N1C(=O)Cn1c(=O)oc2cc(S(=O)(=O)N3CCOCC3)ccc21 (stereo not drawn),-1.4,·
O=C(c1noc2ncnc(N3CCCC3)c12)N1CCN(c2ccccc2F)CC1,·,-0.4
